FGF22 binding – FGF22 (human) thermal shift binding; Q9HCT0; recombinant FGF22 thermal shift, SYPRO orange fluorescence; percent of sucrose octasulfate shift, DMSO zero; calls only at 9.99 µM; 340,000 compounds, 1.5% hits;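 active = melting point raised past a set limit in the mean and every replicate; three in four hits are not shown here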
Target sequence (Q9HCT0 whole entry, looked up): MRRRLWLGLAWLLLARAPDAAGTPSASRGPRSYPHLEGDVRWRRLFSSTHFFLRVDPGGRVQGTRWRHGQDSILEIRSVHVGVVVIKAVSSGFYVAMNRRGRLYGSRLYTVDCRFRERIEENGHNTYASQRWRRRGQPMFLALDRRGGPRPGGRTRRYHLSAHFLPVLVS
Beta2AR agonist – human beta-2 adrenergic receptor agonism by FAP; P07550; Am2.2-beta2AR cells, FAP receptor internalization, flow cytometry; reference of the scale not given here; response, % (concentration not given with the values); 340,000 compounds, 0.43% hits; AID 504454;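 active = response above a set limit, near 3 SD of response in nonfluorescent compounds, cut at about 42% in these data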;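 note: stock transfer was 100 nL into about 11 µL; a reference agonist was the positive control; negative values mostly stem from fluorescent compounds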
UCH37 inh – inhibitors of human deubiquitinating enzyme UCH37 | Q9Y5K5 | purified proteasome/UCH37, Ub-AMC cleavage fluorescence | inhibition, % (no concentration beside the values) | 330,000 compounds, 0.33% hits | AID 588478;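 active = mean of two replicates above 20%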;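 note: 0% = compound-free wells with enzyme and 100% = wells lacking proteasome; stock transfer was 100 nL into about 20 µL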
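Material: human UCH37 enzyme supplied as purified proteasome complex. Measure: % inhibition of Ub-AMC cleavage fluorescence. Medium: pH 7.4 Tris-HCl (50 mM) with ovalbumin, ATP-MgCl2, DTT. Times: 30 min preincubation with enzyme, 25 min cleavage at room temperature. Detection: AMC fluorescence intensity at 355/460 nm.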
LANA-H2B inh – blocks KSHV LANA binding to histone H2A/H2B; Q9QR71; cell-free LANA-H2A/H2B peptide, fluorescence polarization; inhibition, % (test concentration not listed); 320,000 compounds, 0.6% hits; AID 2629; in the data active = inhibition mostly above about 10%, no sharp cut-off; inactive = mostly below about 6.7%;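 note: stock transfer was 7.5 nL into about 10 µL; 0% = median of vehicle wells and 100% = median of positive control wells; one replicate is shown; the record names a cut of 25% in any replicate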
HNF4A DNA FP – change in binding of human HNF4 alpha to DNA. P41235. HNF4a-FITC DNA binding, fluorescence polarization, 1 h. activity change, % at 10 µM. 360,000 compounds, 0.3% hits. AID 1224865; in the data active = activity change above about 30%, passing the limit was not always enough;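 note: controls were the assay level and a saturating level of protein; the project sought stronger binding though the title names inhibitors; some compounds called inactive have numbers as strong as hits; positive values seem to mean higher polarization but the record does not say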
Target sequence (P41235 whole entry, looked up): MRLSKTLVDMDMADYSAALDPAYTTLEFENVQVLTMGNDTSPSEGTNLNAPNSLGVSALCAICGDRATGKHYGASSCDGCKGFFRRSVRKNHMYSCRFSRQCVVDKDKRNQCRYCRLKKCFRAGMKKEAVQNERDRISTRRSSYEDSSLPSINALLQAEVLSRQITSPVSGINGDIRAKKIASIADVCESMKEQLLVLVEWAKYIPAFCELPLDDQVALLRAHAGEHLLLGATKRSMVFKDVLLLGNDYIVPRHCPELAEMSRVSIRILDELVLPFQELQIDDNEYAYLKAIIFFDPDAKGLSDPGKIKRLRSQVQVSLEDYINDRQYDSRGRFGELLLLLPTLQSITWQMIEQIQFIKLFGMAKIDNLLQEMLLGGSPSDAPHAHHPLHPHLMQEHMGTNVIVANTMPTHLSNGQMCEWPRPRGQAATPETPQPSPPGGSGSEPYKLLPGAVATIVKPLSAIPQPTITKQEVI
ALR H2O2 inh – blocks human ALR sulfhydryl oxidase activity; inhibition, % (no concentration beside the values); P55789; AID 485317; purified ALR, DTT oxidation, H2O2 HRP-luminol luminescence; 290,000 compounds, 3.8% hits;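 active = mean and each replicate at 75% or more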;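 note: stock transfer was 7.5 nL into about 7.5 µL; 0% = neutral wells and 100% = wells with inactivated enzyme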
Target sequence (P55789 whole entry, looked up): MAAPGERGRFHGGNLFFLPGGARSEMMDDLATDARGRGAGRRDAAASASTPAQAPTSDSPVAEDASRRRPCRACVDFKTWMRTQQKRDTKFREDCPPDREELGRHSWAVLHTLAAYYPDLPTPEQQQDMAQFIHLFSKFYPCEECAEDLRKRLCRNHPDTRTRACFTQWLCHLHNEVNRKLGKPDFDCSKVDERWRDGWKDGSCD
Ecoli growth – blocks Escherichia coli growth | 330,000 compounds, 0.21% hits | AID 1053175 | OD600, 23 h; active compounds read low | OD600 absorbance (concentration not given with the values);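 active = OD600 absorbance below the run mean of sample wells minus 3.6 SD, in any replicate, cut at about 0.56 in these data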;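 note: stock transfer was 300 nL into about 60 µL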
* = called active by the depositor; i = inactive; / = no result given; + = active, no number.

Values run as follows: FGF22 binding	Beta2AR agonist	UCH37 inh	LANA-H2B inh	HNF4A DNA FP	ALR H2O2 inh	Ecoli growth
> Cc1c(NS(=O)(=O)c2cccc(C(=O)NCc3ccccc3)c2)c(=O)n(-c2ccccc2)n1C
  /	-4	0.2	-0.8	-4.3	-7	0.71
> CCOC(=O)C1CCN(C(=O)CN2C(=O)c3cccnc3Oc3ccc(C)cc32)CC1
  i	-9	3.4	1.3	-0.1	1	0.63
> COc1ccc(S(=O)(=O)N2CCN(c3nc(-c4cccnc4)nc4ccccc34)CC2)cc1
  i	-3	-0.6	3.5	2.3	44	0.74
> CCCC(=O)NNC(=O)c1ccoc1C
  i	-3	2.2	0.3	5.2	-1	0.75
> COc1ccccc1NC(=O)C1CCOC1=O (centres undefined)
  i	-8	-0.5	-5.4	5.9	1	0.62
> Cn1c(N)c(C(=O)COC(=O)c2cccnc2Cl)c(=O)n(C)c1=O
  i	-8	0.8	0.9	5.5	/	0.65
> CCc1nc2oc3ccccc3c(=O)c2c(=O)n1-c1ccccc1
  /	1	1.9	-1.8	-1.5	4	0.68
> Cc1c(C(C)(C(=O)O)c2c(C)n(C)c3ccccc23)c2ccccc2n1C
  i	/	2.1	-1.1	/	-7	0.7
> O=C1N(c2ccc(Cl)cc2)C(c2ccc(Cl)cc2)N2CCCN12 (centres undefined)
  i	0	6.1	0.3	-4.0	-1	0.74
> O=C(CCCC(=O)N(CC(=O)NC1CCCC1)c1ccc(F)c(Cl)c1)Nc1ccccn1
  i	6	1.7	0.3	2.7	5	0.7
> c1ccc(-n2ncc3c(NCC4CCCO4)ncnc32)cc1 (centres undefined)
  /	-2	-0.4	5.1	0.6	-6	0.73
> COCCNc1nnc(SCC(=O)NC(=O)c2ccc(Cl)cc2)s1
  i	-4	0.6	/	0.9	/	0.63
> O=C(NCCCc1ccccc1)C1CC(=O)N(c2ccc3c(c2)OCCO3)C1 (centres undefined)
  /	-1	4.8	5.3	2.9	-5	0.72
> O=c1[nH]c(CSc2nnc(NCCCN3CCOCC3)s2)nc2cc(Cl)ccc12
  /	-8	-1.3	1.9	2.0	-5	0.71
> Cc1ccnc(N2CCC(C(=O)NNC(=O)c3ccncc3)CC2)n1
  i	-5	-6.2	2.7	1.2	0	0.63
> CCn1c(CC(=O)Nc2ccccc2C)nnc1SCC(=O)NC1=NCCS1
  i	3	4.2	5.2	-1.9	1	0.66
> COc1ccc(N2C(=O)CC(Sc3nc4ccccc4s3)C2=O)cc1 (centres undefined)
  i	-1	1.6	-1.9	2.0	22	0.69
> Cc1ccc(Cn2cccc(NC(=O)CCC3CCCC3)c2=O)cc1
  i	-1	-1.8	-1.7	1.3	-1	0.67
> CCN(C(=O)COC(=O)c1ccc(C=O)cc1)c1c(N)n(Cc2ccccc2)c(=O)[nH]c1=O
  i	-6	2.5	3.1	2.9	/	0.65
> CC12CN(C(=O)c3ccccc3Br)CC(C)(CN(C(=O)c3ccccc3Br)C1)C2=O
  i	6	2.3	0.2	0.2	-1	0.65
> COc1ccc(C)cc1NC(=O)C12CCC(C)(C(=O)O1)C2(C)C (centres undefined)
  /	8	-2.7	-2.1	-1.2	-7	0.71
> COCCCN(C(=O)c1ccc2ccccc2n1)c1c(N)n(Cc2ccccc2)c(=O)[nH]c1=O
  i	14	-3.6	/	1.1	-4	0.63
> CCOC(=O)c1ccc(NC(=O)COc2cc3oc(=O)c(CC(C)O)c(C)c3cc2Cl)cc1 (centres undefined)
  i	36	-23	-2.4	-0.8	-14	0.68
> COc1ccc(-c2[nH]ncc2/C=C(/C#N)C(=O)NC2CCCCCC2)cc1
  /	-13	-36	2.7	3.3	-3	0.7
> Cc1ccc(NC(=O)COC(=O)C2COc3ccccc3O2)cc1S(=O)(=O)N1CCOCC1 (centres undefined)
  /	3	1.0	-0.9	-2.4	-13	0.69
> CCCCNC(=O)Nc1c(C(=O)OCC)[nH]c2ccccc12
  /	-8	-2.6	5.2	1.0	-5	0.81
> O=S1(=O)CCC(=Nc2ccc(Cl)cc2)c2ccsc21
  /	-2	2.1	2.6	0.5	-1	0.7
> NC(=O)CSc1nc(N)c2c3c(sc2n1)CCCCC3
  /	-6	3.5	-1.2	1.8	/	0.68
> CN1CCC(N(C)C(=O)CCc2nc3ccccc3c(=O)[nH]2)CC1
  /	0	2.1	-4.5	3.5	1	0.67
> O=c1c2ccc(Cl)cc2nc(-c2ccc([N+](=O)[O-])cc2)n1O
  i	-2	5.9	-3.4	4.9	1	/
> CC(C)CC(C(=O)OCC(=O)Nc1ncc(Cl)cc1Cl)N1C(=O)c2ccccc2C1=O (centres undefined)
  /	-5	4.2	-0.2	-4.9	-8	0.76
> CC(=O)c1ccc(-n2nncc2C(C)(C)C)cc1
  i	-3	1.0	2.8	-0.8	/	0.7
> O=C(/C=C/c1ccco1)NCC1CCCO1 (centres undefined)
  /	1	-4.2	0.8	4.3	4	0.74
> C/C(=N\Nc1nc2c(s1)CCCC2)c1ccc(Cl)cc1
  /	6	/	0.8	3.4	10	/
> CCOC(=O)Nc1sc(C)nc1-c1ccccc1
  i	-4	-0.5	-7.2	1.4	29	0.66
> Cc1ccc(CN(c2ccc(C(=O)NCC3CCCO3)cc2)S(C)(=O)=O)cc1 (centres undefined)
  i	-2	4.3	8.1	3.8	-13	0.65
> CC(C)(C)c1ccc(OCC(O)CS(=O)(=O)c2ccccn2)cc1 (centres undefined)
  /	-3	5.4	3.7	2.2	3	0.72
> CCOc1ccccc1NC(=O)COc1ccc2ccc(=O)oc2c1
  i	2	-103	-3.8	-1.6	0	0.63
> Cc1ccc(C)c(OCCC(=O)NCCc2ccc(F)cc2)c1
  i	-7	5.3	-7.8	-1.7	-13	0.74
> O=C(OCC(=O)N1CCCC1)c1cc2c(cc1[N+](=O)[O-])OCCO2
  i	-2	3.6	-0.6	-0.7	/	0.69
> COc1cc(OC)cc(-c2nc3ccccc3c(=O)n2OC(=O)c2ccc(Br)cc2)c1
  +	16	2.6	-1.8	5.0	-2	0.69
> COc1ccc(CSc2nnc(NC(C)=O)s2)cc1[N+](=O)[O-]
  i	13	1.2	/	-2.7	/	0.69
> O=C(c1ccc2oc(CCc3ccccc3)nc2c1)N1CC[C@H](O)C1
  i	13	0.3	1.9	-0.5	-4	0.72
> Cc1nn(S(=O)(=O)N2CCCCC2)c(C)c1Br
  /	5	3.6	1.8	-2.0	2	0.67
> Cc1cc(C)n2nc(SCn3nnc4ccccc4c3=O)nc2n1
  i	-19	3.9	2.1	-2.7	-6	0.68
> COc1ccccc1CN1CC(C(=O)NCCc2ccccc2Cl)CCC1=O (centres undefined)
  i	1	1.9	2.3	3.8	-5	0.73
> Cc1ccccc1NC(=O)NCCCN1CCN(C2CCCCC2)CC1
  /	1	-0.6	-0.7	0.4	1	0.74
> Nc1nc2c(nc(Br)n2[C@@H]2O[C@@H]3COP(=O)(O)O[C@H]3[C@H]2O)c(=O)[nH]1
  i	2	0.5	-5.9	-1.0	-3	/
> N#CC1=C(N)N=C(SCc2cccc3ccccc23)C(C(N)=O)C12CCCCC2 (centres undefined)
  /	1	4.6	2.0	2.5	15	0.63
> O=C(OC1CCN(c2ncc(C(F)(F)F)cc2Cl)CC1)c1ccccc1
  /	8	1.3	-2.5	-1.8	-11	0.65

Single values from the list:
Entry of Cc1cc(C)n2nc(SCn3nnc4ccccc4c3=O)nc2n1 in Beta2AR agonist: -19
Entry of COc1ccc(CSc2nnc(NC(C)=O)s2)cc1[N+](=O)[O-] in HNF4A DNA FP: -2.7

Other entries.
Values run as follows: FGF22 binding	Beta2AR agonist	UCH37 inh	LANA-H2B inh	HNF4A DNA FP	ALR H2O2 inh	Ecoli growth
> CC12CCC(C(=O)N(CSC(=S)N/N=C\c3ccccc3O)C1=O)C2(C)C (centres undefined)
  /	4	/	0.7	2.5	-6	/
> COc1ccc(-n2nnnc2SC(C)C(=O)NC2CCCC2)cc1 (centres undefined)
  i	-5	-0.5	2.9	0.6	-6	0.68
> COc1ccccc1CNC(=O)c1cnc2sccn2c1=O
  i	-4	5.8	-1.1	-0.9	-25	0.73
> O=C(CSc1ccc(Cl)cc1)Nn1cnnc1
  /	-136	4.2	6.0	1.6	/	0.7
> COc1nnc(-c2ccc(C)c(S(=O)(=O)NC(C)C)c2)c2ccccc12
  i	2	2.4	-5.2	-1.7	-17	0.67
> COC(=O)c1c(NC(=O)c2ccnn2C)sc(C)c1C
  /	-5	-119	3.2	4.0	-13	0.72
> O=C(Nc1ccccc1Cl)c1cccc(NC(=O)c2cccs2)c1
  i	0	0.1	38*	1.4	-7	0.67
> Cc1ccc(OCC(=O)NCCO)cc1C
  i	6	1.5	-4.5	-3.0	44	0.69
> CCCSCCCNC(=O)c1ccc(NC(=O)C2=CSCCO2)cc1
  i	10	5.5	-0.7	1.2	-3	0.61
> CCOc1cc(N2CCOCC2)c(OCC)cc1NC(=O)COC(=O)c1ccc(Cl)nc1
  i	-1	0.9	-3.7	-1.4	-15	0.71
> CC1(C)Oc2ccc3ccc(=O)oc3c2/C(=C/O)C1=O
  i	9	-56	-4.5	-1.8	9	0.62
> Cc1cccc(NC(=O)COC(=O)c2ccc3c(c2)OCO3)c1C
  i	1	0.9	0.6	-2.7	9	0.67
> O=C(C1CCN(Cc2ccc(F)cc2)CC1)N1CCN(C/C=C/c2ccccc2)CC1
  i	19	7.3	-0.7	-4.5	-16	0.73
> Cc1nnc(N2CCOCC2)c2nn(-c3ccccc3)c(C)c12
  i	-6	-8.7	0.2	2.5	-2	0.64
> Cc1c(NC(=O)c2ccc(S(=O)(=O)N3CC(C)OC(C)C3)cc2)c(=O)n(-c2ccccc2)n1C (centres undefined)
  /	-6	3.0	8.2	-1.4	-1	0.72
> CC1CCc2nc(NC(=O)C3CCCO3)sc2C1 (centres undefined)
  /	3	4.9	4.4	-1.2	-51	0.65
> CC(C)(C)N(Cc1ccccc1)C(=O)COC(=O)CCN1C(=O)C2CC=CCC2C1=O (centres undefined)
  i	-5	1.5	/	-2.7	/	0.69
> Cc1cc2oc(=O)cc(-c3ccccc3)c2c(C)c1-c1ccc(O)cc1
  i	2	2.5	/	2.4	/	0.69
> CN(C)S(=O)(=O)c1ccc(NC(=O)Cc2ccc(S(=O)(=O)N3CCOCC3)s2)cc1
  i	-5	0.6	7.0	-5.8	-8	0.64
> Cc1cccc(CC2SC(N3CCN(c4ccccc4)CC3)=NC2=O)c1 (centres undefined)
  /	2	0.2	4.6	-0.7	18	0.72
> O=C(COC(=O)c1ccc(O)cc1O)Nc1ccc(Cl)cn1
  i	5	3.1	2.3	0.7	2	0.67
> Cc1ccccc1C(=O)N1CCC(C(=O)N(CC(C)C)c2c(N)n(Cc3ccccc3)c(=O)[nH]c2=O)CC1
  i	2	1.6	1.8	2.0	-13	0.68
> CCCn1c(=S)[nH]c2sc3c(c2c1=O)CCCC3
  i	15	0.3	8.4	0.8	/	0.69
> CCCCn1c(N)c(N(CCOC)C(=O)CC2CCCCC2)c(=O)[nH]c1=O
  i	-10	1.8	/	-2.7	/	0.67
> CC1=C(C(=O)OC(C)C)C(c2cccnc2)C2=C(CC(C)(C)CC2=O)N1 (centres undefined)
  /	3	-353	0.1	3.8	-2	0.71
> O=[N+]([O-])c1cc([N+](=O)[O-])c(Oc2ccc(F)cc2F)cc1NN1CCCCC1
  i	15	1.3	-0.7	1.1	2	0.75
> Cc1ccc2cc(C(c3nnnn3C3CCCC3)N3CCOCC3)c(=O)[nH]c2c1C (centres undefined)
  /	-4	-4.5	3.9	-0.2	-10	0.72
> CC[C@]12c3[nH]c4ccccc4c3CCN1C(=O)C(CC(=O)NCc1ccco1)C[C@@H]2C(=O)N1CCN(C(=O)C2CC2)CC1 (some centres undefined)
  i	1	1.2	-59	2.0	-2	0.67

Bioassay records deposited in PubChem BioAssay by several laboratories.

Not all compounds are listed; rates above refer to the full screens.
